Screens deposited in PubChem BioAssay by several laboratories.
T cruzi inh – inhibitors of intracellular T. cruzi growth, primary screen, luminescence, NIH3T3 host cells; inhibition, % (test concentration not listed); 300,000 compounds, 1.4% hits; T. cruzi beta-gal in NIH3T3, 90 h;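 active means mean inhibition across valid replicates above about 55%, limit read from the data; inconclusive means mean below that limit but half or more replicates reach it; inactive means mean below it, under half of replicates reach it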;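 further: signal also drops with host cell toxicity which is not excluded here; 0% = plate median of DMSO wells and 100% = zero luminescence signal; higher percent means less beta-gal luminescence so fewer parasites; stock transfer was 50 nL into about 50 µL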
B2AR ag – beta2AR agonists driving receptor internalization, primary screen, cell-based, FAP fluorogen, flow cytometry. Am2.2-beta2AR cells; reference of the scale not given here. 340,000 compounds, 0.43% hits. response, % (test concentration not listed). Beta-2 adrenergic receptor (Homo sapiens), P07550. AID 504454, 2011;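 active means response above a set limit, near 3 SD of response in nonfluorescent compounds, cut at about 42% in these data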;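 further: stock transfer was 100 nL into about 11 µL; a reference agonist was the positive control; negative values mostly stem from fluorescent compounds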
Beta cell apopt – inhibitors of cytokine-induced beta cell apoptosis, primary screen, luminescence. INS-1E cytokine-induced death, ATP luminescence, 48 h; percent of positive-control rescue, neutral wells zero. protection from apoptosis, % (concentration not given with the values). 300,000 compounds, 0.8% hits;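 active means all replicates at 75% or more, or half of them and the mean; inconclusive means half reach 75% but not the mean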;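 further: 0% = cytokine-treated negative control wells and 100% = positive control rescue; higher means more ATP so stronger rescue from cytokine killing; wells of about 40 µL received 100 nL stock; the first replicate is given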
A1 inh – caspase 3/7 activation in MEF A1-2A-BIM cells, primary screen, A1 inhibitor project, cell-based, luminescence, HTS | Caspase-Glo 3/7 luminescence, 3 h; percent of clofoctol response, vehicle zero | caspase activation, % (no concentration beside the values) | 330,000 compounds, 0.066% hits | AID 2462, 2010;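 active means over half of replicate activation scores above 10%, or exactly half above 10 with the replicate mean above 10; inconclusive means replicate mean below 10 yet half the replicates above 10; inactive means over half of replicates below 10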;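 further: wells of about 30 µL received 50 nL stock; many hits fall short of the cut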
Ecoli rRNA inh – reduced GFP signal of wild-type E. coli, primary screen, bacterial rRNA inhibitor project, GFP/RFP fluorescence, OD600, single point; E. coli WT GFP vs humanized-ribosome RFP mutants, 24 h; hits give low values; DMSO median 0, no signal -100; GFP signal change (wild-type ribosome), % (concentration not given with the values); 350,000 compounds, 1.6% hits; AID 720706, 2013;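 active means significant combined selectivity score with lowered wild-type GFP, culture density cut under 30%, mutant RFP and density less affected; inactive means any of these conditions unmet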; further: one replicate is shown; some compounds called inactive have numbers as strong as hits
ALR inh – inhibitors of human ALR sulfhydryl oxidase, primary screen, biochemical, H2O2 detection, HRP-luminol luminescence, single point | FAD-linked sulfhydryl oxidase ALR (Homo sapiens), P55789 | inhibition, % (no concentration beside the values) | purified ALR, DTT oxidation | 290,000 compounds, 3.8% hits;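 active means mean and each replicate at 75% or more; inconclusive means only one of the two met; inactive means neither met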;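 further: stock transfer was 7.5 nL into about 7.5 µL; 0% = neutral wells and 100% = wells with inactivated enzyme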
LANA-H2B inh – blockers of LANA interaction with H2A/H2B – biochemical, FP readout, HTS, primary screen; Protein LANA1 (Human herpesvirus 8 type P (isolate GK18)), Q9QR71; cell-free LANA-H2A/H2B peptide, fluorescence polarization; inhibition, % (test concentration not listed); 320,000 compounds, 0.6% hits; AID 2629, 2010; in the data active means inhibition mostly above about 10%, no sharp cut-off; inactive means mostly below about 6.7%;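 further: stock transfer was 7.5 nL into about 10 µL; 0% = median of vehicle wells and 100% = median of positive control wells; one replicate is shown; the record names a cut of 25% in any replicate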
Target sequence (Q9QR71 whole entry, looked up): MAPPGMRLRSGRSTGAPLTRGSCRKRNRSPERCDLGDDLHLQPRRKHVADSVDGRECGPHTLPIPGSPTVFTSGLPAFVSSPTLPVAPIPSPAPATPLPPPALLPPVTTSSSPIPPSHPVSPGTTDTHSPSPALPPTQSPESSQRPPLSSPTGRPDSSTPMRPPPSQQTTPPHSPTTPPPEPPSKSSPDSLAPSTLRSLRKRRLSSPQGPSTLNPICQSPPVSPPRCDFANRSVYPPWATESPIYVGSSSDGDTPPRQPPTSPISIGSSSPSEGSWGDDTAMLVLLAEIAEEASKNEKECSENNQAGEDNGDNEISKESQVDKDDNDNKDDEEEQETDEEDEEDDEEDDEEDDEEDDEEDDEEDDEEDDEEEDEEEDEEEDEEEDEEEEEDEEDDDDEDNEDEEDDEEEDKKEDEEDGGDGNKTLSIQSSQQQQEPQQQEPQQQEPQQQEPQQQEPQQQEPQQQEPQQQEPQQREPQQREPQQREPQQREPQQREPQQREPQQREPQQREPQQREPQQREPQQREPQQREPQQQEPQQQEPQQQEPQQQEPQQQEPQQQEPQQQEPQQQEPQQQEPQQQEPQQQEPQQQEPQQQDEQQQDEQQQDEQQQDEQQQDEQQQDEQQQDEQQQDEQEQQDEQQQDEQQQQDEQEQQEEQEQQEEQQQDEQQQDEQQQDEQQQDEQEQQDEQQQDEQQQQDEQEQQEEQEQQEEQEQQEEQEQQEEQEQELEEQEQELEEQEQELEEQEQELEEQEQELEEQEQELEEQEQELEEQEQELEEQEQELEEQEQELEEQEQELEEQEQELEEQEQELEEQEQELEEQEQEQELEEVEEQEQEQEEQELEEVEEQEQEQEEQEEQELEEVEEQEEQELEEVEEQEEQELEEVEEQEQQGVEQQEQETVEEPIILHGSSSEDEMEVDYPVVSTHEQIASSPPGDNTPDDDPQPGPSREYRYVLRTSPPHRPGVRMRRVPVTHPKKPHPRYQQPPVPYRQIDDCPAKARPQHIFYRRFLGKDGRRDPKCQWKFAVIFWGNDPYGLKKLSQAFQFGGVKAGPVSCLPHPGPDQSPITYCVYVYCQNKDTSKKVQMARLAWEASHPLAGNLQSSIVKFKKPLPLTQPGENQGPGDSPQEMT
Calb FLC – C. albicans growth inhibition with fluconazole, primary screen, CaCi-2 strain, Alamar Blue fluorescence | C. albicans CaCi-2 (fluconazole-resistant clinical isolate) + fluconazole, 48 h | growth inhibition, % (test concentration not listed) | 300,000 compounds, 0.57% hits | AID 1979, 2009;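 active means most replicates above 75%; inconclusive means exactly half above 75%; inactive means most below 75%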;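 further: all wells also contain fluconazole at 8 µg/ml as a sub-toxic cotreatment; 0% = median of DMSO wells and 100% = median of geldanamycin control wells; wells of about 8 µL received 7.5 nL stock; the first replicate is given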
Ecoli rRNA inh OD600 – further read-out of Ecoli rRNA inh, marked with its call; OD600 change, %; measured here: OD600 growth;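 optical density of the mix in the first replicate; 0 = DMSO median and -100 = no signal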
Ecoli rRNA inh RFP – further read-out of Ecoli rRNA inh, marked with its call; RFP signal change, %; measured here: RFP humanized mutant strains;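 first replicate; 0 = DMSO median and -100 = no signal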
* marks the source's active call; other numbers are inactive results; ? = inconclusive; nt = no result given. This is a subset. The share of hits here may be higher or lower than overall.

SMILES	T cruzi inh	B2AR ag	Beta cell apopt	A1 inh	Ecoli rRNA inh	Ecoli rRNA inh OD600	Ecoli rRNA inh RFP	ALR inh	LANA-H2B inh	Calb FLC
c1ccc(Cn2c(SCCN3CCOCC3)nnc2-c2cccnc2)cc1	-17	-8	-7	-1.1	nt	nt	nt	nt	5.8	-3
CN(CCc1ccccn1)C(=O)CN(C)S(=O)(=O)c1ccc2c(c1)c(=O)n(C)c(=O)n2C	-8	16	0	0.9	12	7	-4.4	-2	-0.2	-3
CCN1CCN(c2ccc(NC(=O)c3cccc(OCc4ccccc4)c3)cc2)CC1	19	-7	-1	0.3	nt	nt	nt	7	0.7	2
O=C(CCCCl)Oc1ccc2cc(-c3ccc4ccccc4n3)c(=O)oc2c1	-13	-5	-2	-4.5	5	15	8.9	2	0.8	-24
O=C(C1CC(=O)N(C2CCCC2)C1)N1CCN(c2cccc(Cl)c2)CC1 (stereo unspecified)	-5	-4	-1	1.2	-3	1	0.6	0	-2.4	-2
CC1SCC(=NOCc2ccccc2)CS1 (stereo unspecified)	12	6	-1	-7.2	10	7	2.8	-1	-2.6	-6
N#Cc1cccc(OC(=O)c2ccc3c(=O)n4c(nc3c2)CCC4)c1	-8	1	-2	-0.7	12	0	3.4	44	0.8	7
Cn1nnnc1SCC(=O)c1c(N)n(C2CC2)c(=O)[nH]c1=O	nt	-1	-3	0.1	3	7	-3.1	nt	3.3	nt
Cc1cc(C)cc(NC(=O)C(OC(=O)C2=COCCO2)c2ccccc2)c1 (stereo unspecified)	-13	5	-3	0.8	nt	nt	nt	28	-3.6	-4
O=C(c1cc(COc2ccc(F)cc2Cl)on1)N1CCC(OCc2cccnc2)CC1	10	3	15	0.6	-23	-19	-0.4	nt	-2.6	0
C/C(=N\NC(=O)c1ccc(N)cc1)C1CC1	-1	1	1	0.2	11	13	-1.4	21	0.3	-7
COc1ccc(NC(=O)CN2CCN(CC(=O)Nc3ccccc3Cl)CC2)c(OC)c1	11	10	5	-0.2	4	-6	-1.1	2	-8.6	31
Cc1ccc(CNC(=O)c2ccccc2SCC(=O)NCC2CCCCC2)cc1	6	10	3	-1.0	nt	nt	nt	-7	-1.7	-8
O=c1[nH]c(NC2CCCCC2)c([N+](=O)[O-])c(=O)[nH]1	-16	2	-3	0.2	nt	nt	nt	14	8.5	34
COc1ccc(OC)c(NC(=O)CCC(=O)N(Cc2ccc(OC)c(OC)c2)c2nccs2)c1	-8	6	-17	-0.1	16	14	1.8	-26	-6.3	-3
Cn1c(=O)oc2cc(S(=O)(=O)N3CCC(C(=O)NCc4ccccc4)CC3)ccc21	-9	1	4	0.6	16	19	0.7	-1	2.6	-2
CCc1nnc(NC(=O)CSc2nnc(-c3ccccc3O)n2-c2ccc(C)cc2)s1	8	-10	4	-0.6	nt	nt	nt	-7	-2.9	-13
CCN(CC)CCCNC(=O)Cn1ncn2cccc2c1=O	-4	5	-3	0.0	nt	nt	nt	-8	-1.4	-2
Cc1ccc(-n2c(C)cc(=O)cc2C)cc1[N+](=O)[O-]	-23	0	-4	0.3	-1	9	-1.2	nt	-0.5	42
Cc1ccc(N(C(C)C(=O)O)S(=O)(=O)c2c(C)n[nH]c2C)cc1 (stereo unspecified)	-9	0	nt	-0.3	nt	nt	nt	nt	-0.6	5

6 records drawn at random from those above, as already listed:
SMILES	T cruzi inh	B2AR ag	Beta cell apopt	A1 inh	Ecoli rRNA inh	Ecoli rRNA inh OD600	Ecoli rRNA inh RFP	ALR inh	LANA-H2B inh	Calb FLC
Cc1ccc(-n2c(C)cc(=O)cc2C)cc1[N+](=O)[O-]	-23	0	-4	0.3	-1	9	-1.2	nt	-0.5	42
CCN(CC)CCCNC(=O)Cn1ncn2cccc2c1=O	-4	5	-3	0.0	nt	nt	nt	-8	-1.4	-2
c1ccc(Cn2c(SCCN3CCOCC3)nnc2-c2cccnc2)cc1	-17	-8	-7	-1.1	nt	nt	nt	nt	5.8	-3
CCN1CCN(c2ccc(NC(=O)c3cccc(OCc4ccccc4)c3)cc2)CC1	19	-7	-1	0.3	nt	nt	nt	7	0.7	2
COc1ccc(OC)c(NC(=O)CCC(=O)N(Cc2ccc(OC)c(OC)c2)c2nccs2)c1	-8	6	-17	-0.1	16	14	1.8	-26	-6.3	-3
Cc1ccc(N(C(C)C(=O)O)S(=O)(=O)c2c(C)n[nH]c2C)cc1 (stereo unspecified)	-9	0	nt	-0.3	nt	nt	nt	nt	-0.6	5

Next entries:
SMILES	T cruzi inh	B2AR ag	Beta cell apopt	A1 inh	Ecoli rRNA inh	Ecoli rRNA inh OD600	Ecoli rRNA inh RFP	ALR inh	LANA-H2B inh	Calb FLC
CCN(CC)c1ccc2nc3c4ccccc4c(=O)cc-3oc2c1	0	nt	3	-6.1	37	26	60	-21	5.1	-8
c1ccc(N2CCN(c3c4c(nc5ncnn35)CCC4)CC2)cc1	-18	-19	7	-0.7	-5	-5	-7.3	nt	9.9	0
COC(=O)c1c(CCl)noc1C(=O)NC(C)C	4	-3	-7	0.7	6	2	30	7	1.7	-72
C=CC[C@@H](Cc1ccc(F)cc1)C(=O)OC[C@@H]1CCCN1C(=O)[C@@H](CC=C)CC(=O)NCCO	nt	7	1	-1.3	2	2	-9.7	4	-0.7	nt
Cc1ccc(N2C(=O)C3C=NNC3C2=O)cc1 (stereo unspecified)	-10	1	-4	-0.8	20	6	2.1	0	0.5	6
Cc1csc(NC(=O)Cn2cnnn2)n1	-3	3	1	0.6	nt	nt	nt	-6	-5.8	-15
COc1ccc(CCNc2nncc(=O)[nH]2)cc1OC	-16	15	-2	0.1	1	6	-0.6	2	1.5	-13
COc1ccc(C(=S)N2CCOCC2)cc1OS(=O)(=O)c1ccc(Br)cc1	8	-3	nt	-0.6	1	-3	0.7	-15	0.5	-9
COc1cc2ccccc2cc1C(=O)N1CCN(C(C)=O)CC1	-9	1	-4	0.4	16	4	-0.2	-12	-28	-12
COc1ccc(Cc2nnc(-c3cccc(C)c3)o2)cc1OC	-14	9	-1	-0.5	nt	nt	nt	19	-1.3	1
Oc1ccc(-c2csc(Nc3ncccn3)n2)c(O)c1	27	-8	nt	-1.0	-10	-7	-2.0	17	-5.4	21
Cc1ccc(CN2CCCN(Cc3c(F)cccc3Cl)S2(=O)=O)cc1	18	10	nt	-0.6	-29	-29	-3.1	nt	2.3	17
Cc1ccc2c(c1)cc(CN(Cc1ccc3c(c1)OCO3)S(=O)(=O)c1ccccc1)c1nnnn12	41	-6	-14	0.0	nt	nt	nt	-2	5.1	-1
Cc1oc(-c2cc(F)ccc2F)nc1CN1CCN(C)C(=O)[C@@H]1C	-14	-5	-1	0.6	14	10	-0.4	-2	-11	1
COc1ccccc1N1CCN(c2ccc(N3C(=O)CCC3=O)cc2[N+](=O)[O-])CC1	-6	-5	-2	-0.5	-8	-6	3.0	50	-5.9	-8
Cc1ccc(NC(=S)Nc2ccc3cn[nH]c3c2)cc1	-7	-4	-9	0.5	nt	nt	nt	-172	2.7	33
Cc1ccccc1C(=O)Nc1cccc(NC(=O)c2ccccc2[N+](=O)[O-])c1	-16	-6	nt	0.0	-5	-8	-1.6	0	-1.8	-10
CC(=O)Nc1ccc(S(=O)(=O)NCC2CCC(C(=O)NC(C)c3ccc4c(c3)OCCO4)CC2)cc1 (stereo unspecified)	-6	nt	5	0.2	nt	nt	nt	5	1.5	-15
C/C(=N\Nc1nc(C(C)(C)C)cs1)c1ccccc1	73*	-9	15	-0.3	-9	-7	1.1	98*	-4.0	-19
COc1cc(OC)c(NC(=S)Nc2cccc(C)c2)cc1Cl	6	16	2	-0.2	nt	nt	nt	-14	-10.0	?
CCOC(=O)NC(=O)/C(C#N)=C\NNc1ncc(C(F)(F)F)cc1Cl	-32	-9	-12	0.2	10	6	-1.2	-2	0.7	23
COc1ccccc1N1C(=O)c2ccccc2NC1c1ccncc1 (stereo unspecified)	-9	6	-1	-0.1	nt	nt	nt	-2	-0.5	7
CC1=C(C(=O)Nc2ccccc2)C(c2ccc(O)cc2)N2C(=O)CSC2=N1 (stereo unspecified)	-7	nt	-3	0.0	nt	nt	nt	nt	-5.2	22
COC(=O)c1ccc2c(=O)sc(N3CCC(C(N)=O)CC3)nc2c1	-9	15	0	0.0	nt	nt	nt	-8	0.8	-11
Cc1cccc(Cc2nnc(CCC(=O)N(C)Cc3ccncc3C)o2)c1	-8	-9	-4	1.0	1	3	1.4	6	-2.5	30
O=C(NC1CCCCCC1)C1CCN(C(=O)c2cccc(Cl)c2)CC1	5	22	-4	0.8	-8	0	-0.5	1	0.7	0
O=C(c1ccc(F)c(S(=O)(=O)N2CCOCC2)c1)N1CCc2ccccc21	-3	3	-2	-0.9	-14	-3	0.0	-3	-2.2	1
CS(=O)(=O)c1ccc(Cl)c(NC(=O)CCCc2nc3ccccc3c(=O)[nH]2)c1	-4	-8	nt	-1.1	4	10	0.4	-13	-7.9	-2
CCCCNC(=O)Oc1cccc(N2CCCC2=O)c1	19	14	-4	0.6	nt	nt	nt	1	0.5	-3
O=C(c1ccncc1)N1CCc2ccccc2C1	-9	5	-9	-1.2	2	15	-1.1	-3	0.6	0
COc1ccc(-c2ccnc(-c3ccc(OCCCF)cc3)n2)cc1	-2	6	3	-1.2	nt	nt	nt	0	-2.4	6
CC(=O)NCCn1c(SCc2ccc(C)cc2)nc2ccccc2c1=O	16	-6	4	0.1	nt	nt	nt	-37	-3.1	7
O=C(NNC(=O)c1cccs1)c1ccc(Br)cc1	-6	7	-2	-0.7	5	14	0.7	nt	2.3	-2
C=C(C)CNC(=S)Nc1cccc2cnccc12	4	-1	-4	-0.1	5	2	-2.4	-55	4.3	12
Cc1cccc(C)c1OCCn1nnc2ccccc21	4	-3	1	0.2	-28	-27	-6.1	-1	-5.7	12
COc1ccc(CN(Cc2cc3cc(C)ccc3[nH]c2=O)C(=O)N(C)C)cc1	-10	1	nt	-0.4	nt	nt	nt	nt	11	-1
CCCCN1C2CCCC1CC(NC(=O)C1CCCCC1)C2 (stereo unspecified)	21	-2	-1	-1.1	nt	nt	nt	nt	0.5	-2
COc1cccc(-c2noc(C3CCCN(C(=O)c4ccc(F)cc4)C3)n2)c1 (stereo unspecified)	7	3	1	-1.9	-16	-14	1.7	-2	-6.9	1
